Vaccinia stage – Vaccinia orthopox stage-specific inhibition; Vaccinia-infected cells, mCherry/Venus stage reporter fluorescence; hits give low values; some inactives read as strong as hits; 89,000 compounds, 0.01% hits; activity change (mCherry), % (test concentration not listed);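 active = mCherry past -33% and 40 or more points under the early reporter, replicates agreeing; inconclusive = past -33% without that gap or agreement; tested in A549 cells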;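 note: scaled between vehicle wells and reference inhibitor wells; 23 nL library stock went into each well; one replicate is shown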
Vaccinia stage Venus – second read-out of Vaccinia stage, no call of its own (marks repeat the call); activity change (Venus), %; measured here: Venus reporter, other viral stage;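 negative = less Venus signal; first of two replicates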
* = called active by the depositor; ? = inconclusive; . = not tested or not shown; & = joins results of further samples. Only part of the results is shown. The share of hits here may be higher or lower than overall.

SMILES	Vaccinia stage	Vaccinia stage Venus
COCC#Cc1cnc2c(c1)C(=O)N([C@@H](C)CO)C[C@@H](C)[C@H](CN(C)Cc1ccccc1)O2	12	13
COc1ccc2c3c(n(C)c2c1)[C@H](CO)N(Cc1ccccc1F)CC31CCN(C(=O)C2CCCC2)CC1	-24	-20
COc1ccccc1NC(=O)N1C[C@@H]2[C@H](c3ccccc31)[C@@H](CO)N2C(=O)C1CC1	-7	16
COc1ccc(C#Cc2ccc([C@@H]3[C@H]4CN(C(=O)Cc5cccnc5)CCCCN4[C@H]3CO)cc2)cc1	?	.
CN1CCN(C(=O)C[C@H]2C[C@@H]3c4cc(NC(=O)C5CCOCC5)ccc4O[C@@H]3[C@@H](CO)O2)CC1	-3	-4
COc1ccc(S(=O)(=O)N(C)C[C@H]2Oc3c(NC(=O)NC(C)C)cccc3C(=O)N([C@H](C)CO)C[C@@H]2C)cc1	11	3
C[C@@H]1CN([C@@H](C)CO)C(=O)c2cc(NS(C)(=O)=O)ccc2O[C@@H]1CN(C)C(=O)Nc1ccc2c(c1)OCO2	17	6
COc1ccc(NC(=O)N(C)C[C@H]2Oc3ccc(NC(=O)Nc4cccc5ccccc45)cc3C(=O)N([C@H](C)CO)C[C@H]2C)cc1	0	3
CC(C)c1cn(CC[C@H]2CC[C@@H](NS(=O)(=O)c3ccc(F)cc3)[C@H](CO)O2)nn1	8	1
CN(C)Cc1cn(CC[C@@H]2CC[C@H](N)[C@H](CO)O2)nn1	1	2
C[C@H](CO)N1C[C@H](C)[C@H](CN(C)C)Oc2cc(-c3ccccc3F)ccc2S1(=O)=O	-8	8
C[C@@H]1CN([C@@H](C)CO)C(=O)CCCn2nncc2CO[C@H]1CN(C)C(=O)Nc1ccccc1	-2	3
C[C@@H]1CN([C@@H](C)CO)C(=O)c2cc(C3=CCCCC3)cnc2O[C@@H]1CN(C)Cc1ccc(C(=O)O)cc1	17	11
O=C(C[C@@H]1C[C@@H]2c3cc(NC(=O)c4ccc5c(c4)OCO5)ccc3O[C@@H]2[C@H](CO)O1)NCc1cc(F)ccc1F	-8	2
C[C@@H]1CN([C@H](C)CO)C(=O)Cc2cc(NC(=O)NC3CCCCC3)ccc2O[C@H]1CN(C)S(=O)(=O)c1ccc(F)cc1	3	8
O=C(C[C@H]1CC[C@@H]2[C@H](COC[C@@H](O)CN2Cc2ccc(F)cc2)O1)NCCc1ccccc1	5	-3
CCS(=O)(=O)Nc1ccc2c(c1)C(=O)N(C)C[C@H](OC)[C@H](C)CN(Cc1ccccn1)[C@H](C)CO2	-1	9
C[C@H]1CN([C@@H](C)CO)C(=O)c2cc(-c3ccncc3)cnc2O[C@@H]1CN(C)CC1CCCCC1	12	7
C[C@H]1CN([C@@H](C)CO)S(=O)(=O)c2ccc(-c3ccncc3)cc2O[C@H]1CN(C)C(=O)C1CC1	14	16
C[C@@H]1CN([C@H](C)CO)S(=O)(=O)c2ccc(C#CC3CC3)cc2O[C@@H]1CN(C)C(=O)C1CC1	-3	-12
COc1ccccc1-c1cn(CC[C@@H]2CC[C@@H](NC(=O)NC(C)C)[C@@H](CO)O2)nn1	16	9
COc1ccc(NC(=O)Nc2ccc3c(c2)C(=O)N([C@H](C)CO)C[C@H](C)[C@@H](CN(C)Cc2ccc(Cl)c(Cl)c2)OCCCC[C@@H](C)O3)cc1	-1	-2
CC(C)NC(=O)N(C)C[C@@H]1Oc2c(cccc2N(C)C)C(=O)N([C@@H](C)CO)C[C@@H]1C	21	15
C[C@@H]1CN([C@@H](C)CO)C(=O)Cc2cc(NC(=O)Cc3cn(C)c4ccccc34)ccc2O[C@H]1CN(C)C(=O)Nc1ccc2c(c1)OCO2	4	3
O=C(C[C@H]1CC[C@@H]2[C@H](COC[C@H](O)CN2Cc2cccc(C(F)(F)F)c2)O1)NCCc1ccccc1	-31	-26

Looked up by structure from the entries so far:
SMILES	Vaccinia stage	Vaccinia stage Venus
C[C@@H]1CN([C@@H](C)CO)C(=O)Cc2cc(NC(=O)Cc3cn(C)c4ccccc34)ccc2O[C@H]1CN(C)C(=O)Nc1ccc2c(c1)OCO2	4	3
O=C(C[C@H]1CC[C@@H]2[C@H](COC[C@H](O)CN2Cc2cccc(C(F)(F)F)c2)O1)NCCc1ccccc1	-31	-26

Later entries.
SMILES	Vaccinia stage	Vaccinia stage Venus
Cc1ccc(S(=O)(=O)Nc2ccc3c(c2)C(=O)N([C@@H](C)CO)C[C@@H](C)[C@@H](CN(C)C)OCCCC[C@@H](C)O3)cc1	11	12
C[C@H](CO)N1C[C@H](C)[C@H](CN(C)S(C)(=O)=O)Oc2c(NC(=O)C3CCOCC3)cccc2C1=O	8	9
OC[C@@H]1[C@H](c2ccc(Br)cc2)[C@@H]2CN(Cc3ccccn3)CCCCN12	7	5
COc1ccc(-c2ccc3c(c2)[C@@H]2[C@@H](CCN2C(=O)Nc2ccc(F)cc2)[C@H](CO)N3C)cc1	-20	-18
CN(C)c1ccc2c(c1)[C@@H]1C[C@@H](CC(=O)NCc3ccc(Oc4ccccc4)cc3)O[C@@H](CO)[C@@H]1O2	?	.
CCCNC(=O)N1[C@H](C#N)[C@@H](c2ccc(-c3cccc(OC)c3)cc2)[C@@H]1CO	-25	-19
COc1cccc(CNC(=O)C[C@@H]2C=C[C@H](NC(=O)C3CC3)[C@@H](CO)O2)c1	-1	-1
CCC(=O)Nc1ccc2c(c1)OC[C@@H](C)N(CCC(F)(F)F)C[C@H](C)[C@@H](OC)CN(C)C2=O	3	-1
O=C(N[C@H]1CC[C@H](CCn2cc(C3CC3)nn2)O[C@H]1CO)c1cccnc1	3	9
C[C@@H]1CCCCO[C@@H](CN(C)C(=O)Cc2ccccc2)[C@H](C)CN([C@H](C)CO)C(=O)c2cc(NC(=O)Nc3ccc(F)cc3)ccc2O1	-34	-28
CNC[C@H]1OCCCC[C@H](C)Oc2ccc(NS(=O)(=O)c3ccc(C)cc3)cc2C(=O)N([C@@H](C)CO)C[C@@H]1C	-13	4
CCCNC(=O)[C@@H]1[C@@H](CO)[C@@H]2Cn3c(ccc(C4=CCCCC4)c3=O)[C@H]1N2	-19	9
C[C@@H]1CN([C@@H](C)CO)C(=O)c2cc(NC(=O)C3CC3)ccc2O[C@H]1CN(C)S(C)(=O)=O	4	4
C[C@H](CO)N1C[C@H](C)[C@@H](CN(C)C(=O)Oc2ccc3ccccc3c2)OCc2cn(nn2)CCCC1=O	-2&10	0&5
COc1ccc(NC(=O)N(C)C[C@@H]2OCCCC[C@@H](C)Oc3ccc(NC(=O)c4ccccc4)cc3C(=O)N([C@@H](C)CO)C[C@H]2C)cc1	4	-5
COc1ccc(S(=O)(=O)N[C@@H]2CC[C@@H](CC(=O)N3CCC(Cc4ccccc4)CC3)O[C@H]2CO)cc1	-21	-15
CNC[C@@H]1Oc2ccc(NC(=O)Nc3ccc4c(c3)OCO4)cc2C(=O)N([C@H](C)CO)C[C@@H]1C	9	6
C[C@@H]1CN([C@H](C)CO)C(=O)c2cccc(NS(=O)(=O)c3ccc(F)cc3)c2O[C@@H]1CN(C)S(C)(=O)=O	10	6
CN1c2ccc(-c3cccc(C#N)c3)cc2[C@H]2[C@H](CCN2C(=O)NC2CCCC2)[C@@H]1CO	-32	-25
C[C@H]1CCCCO[C@H](CN(C)S(=O)(=O)c2ccccc2)[C@@H](C)CN([C@@H](C)CO)C(=O)c2cc(NS(=O)(=O)c3ccc(Cl)cc3)ccc2O1	?	.
CC(C)NC(=O)Nc1ccc2c(c1)C(=O)N([C@@H](C)CO)C[C@@H](C)[C@@H](CN(C)Cc1ccc(C(F)(F)F)cc1)OCCCC[C@@H](C)O2	?	.
COCc1cn(CC[C@@H]2CC[C@H](NC(=O)Nc3c(C)noc3C)[C@@H](CO)O2)nn1	5	12
COc1ccc(S(=O)(=O)N(C)C[C@@H]2OCCCC[C@@H](C)Oc3ccc(NC(=O)CCCN(C)C)cc3C(=O)N([C@H](C)CO)C[C@@H]2C)cc1	38	12
O=C(Nc1ccc2c(c1)OCO2)N[C@H]1CC[C@@H](CCNC(=O)C2CCOCC2)O[C@@H]1CO	-3	3
C[C@@H]1CCCCO[C@@H](CN(C)S(=O)(=O)c2cn(C)cn2)[C@@H](C)CN([C@H](C)CO)C(=O)c2cc(NC(=O)Nc3ccc(F)cc3)ccc2O1	23	5

Reformatted: results already given.
CCCNC(=O)N1[C@H](C#N)[C@@H](c2ccc(-c3cccc(OC)c3)cc2)[C@@H]1CO
  Vaccinia stage: -25; Vaccinia stage Venus: -19

COc1cccc(CNC(=O)C[C@@H]2C=C[C@H](NC(=O)C3CC3)[C@@H](CO)O2)c1
  Vaccinia stage: -1; Vaccinia stage Venus: -1

CCC(=O)Nc1ccc2c(c1)OC[C@@H](C)N(CCC(F)(F)F)C[C@H](C)[C@@H](OC)CN(C)C2=O
  Vaccinia stage: 3; Vaccinia stage Venus: -1

O=C(N[C@H]1CC[C@H](CCn2cc(C3CC3)nn2)O[C@H]1CO)c1cccnc1
  Vaccinia stage: 3; Vaccinia stage Venus: 9

Other entries follow.
SMILES	Vaccinia stage	Vaccinia stage Venus
C[C@H]1CN([C@@H](C)CO)C(=O)Cc2cc(NC(=O)Nc3ccccc3)ccc2O[C@H]1CN(C)CC1CC1	7	10
C[C@@H]1CCCCO[C@@H](CN(C)Cc2ccc(C(F)(F)F)cc2)[C@@H](C)CN([C@@H](C)CO)C(=O)c2cc(NC(=O)CCC(F)(F)F)ccc2O1	?	.
CC=Cc1ccc2n(c1=O)C[C@H]1[C@H](CO)[C@@H](C(=O)NC3CCCC3)N(Cc3ccccc3)[C@@H]21 (mixture of isomers)	-11	8
Cc1ccc(-c2ccc([C@@H]3[C@@H](CO)N4C(=O)CN(C(=O)Nc5cccc(F)c5)C[C@@H]34)cc2)cc1	?	.
C[C@H](CO)N1C[C@H](C)[C@H](CN(C)S(=O)(=O)c2ccc(F)cc2)Oc2c(NC(=O)Nc3ccc4c(c3)OCO4)cccc2C1=O	-33	-32
C[C@H]1CN([C@@H](C)CO)S(=O)(=O)c2ccc(-c3cncnc3)cc2O[C@H]1CN(C)C(=O)c1cccc(F)c1	11	6
O=C(NCC[C@H]1CC[C@@H](NC(=O)C2CCCC2)[C@@H](CO)O1)Nc1ccc(Cl)cc1	7	-3
C=CCN1C(=O)[C@]2(O[C@H](CCn3cc([C@H](O)c4ccccc4)nn3)[C@@H]([Si](C)(C)c3ccc(OC)cc3)[C@@H]2C)c2cc(N3CCOC3=O)ccc21	?	.
CO[C@@H]1CN(C)C(=O)c2ccc(NC(=O)Nc3c(C)noc3C)cc2OC[C@@H](C)N(CC2CC2)C[C@@H]1C	0	12
COCC(=O)N[C@@H]1C[C@@H]2O[C@@H](CO)CC[C@@H]2O[C@@H]1CCc1ccc(-c2ccccc2)cc1	-2	0
CCCNC(=O)[C@H]1[C@H](CO)[C@H]2Cn3c(ccc(-c4ccc(F)cc4)c3=O)[C@@H]1N2Cc1ccccc1F	-3	-6
C[C@H](CO)N1C[C@H](C)[C@H](CN(C)CC2CC2)Oc2c(NS(=O)(=O)c3ccccc3)cccc2C1=O	4	7
O=C(Cc1cccnc1)N1CC(=O)N2[C@H](C1)[C@@H](c1ccc(C3=CCCC3)cc1)[C@@H]2CO	-4	4
COC(=O)C[C@@H]1CC[C@@H](NS(=O)(=O)c2ccc(OC)cc2)[C@@H](CO)O1	2	2
COCC(=O)N(C)C[C@@H]1Oc2ncc(C#C[C@H](C)O)cc2C(=O)N([C@H](C)CO)C[C@H]1C	7	1
O=C(Cc1ccccn1)N1CC(=O)N2[C@H](C1)[C@@H](c1ccc(-c3ccccc3)cc1)[C@@H]2CO	9	4
COc1ccc(S(=O)(=O)Nc2cccc3c2O[C@@H](CN(C)C(=O)Nc2ccc(F)cc2)[C@@H](C)CN([C@H](C)CO)C3=O)cc1	-19	-19
CO[C@@H]1CN(C)C(=O)c2cc(NS(C)(=O)=O)ccc2OC[C@H](C)N(C(=O)C2CC2)C[C@H]1C	12	4
C[C@@H]1CCCCO[C@@H](CN(C)Cc2ccncc2)[C@H](C)CN([C@@H](C)CO)C(=O)c2cc(NC(=O)Nc3ccc4c(c3)OCO4)ccc2O1	7	4
CCCNC(=O)C[C@@H]1C[C@H]2c3cc(NC(=O)C4CCOCC4)ccc3O[C@H]2[C@H](CO)O1	7	8
O=C(C[C@H]1C[C@H]2c3cc(NC(=O)NC4CCCC4)ccc3O[C@H]2[C@H](CO)O1)NCCc1ccccc1	6	3
C[C@@H](O)C#Cc1ccc([C@H]2[C@H](CO)N3CCCCN(S(=O)(=O)Cc4ccccc4)C[C@@H]23)cc1	8	12
C/C=C/c1ccc([C@@H]2[C@@H](CO)N3CCCCN(C(=O)Nc4ccccc4F)C[C@@H]23)cc1	5	-4
CCCNC(=O)N1C[C@@H]2[C@H](c3ccccc31)[C@@H](CO)N2C(=O)Nc1ccc(F)cc1	-12	3
C[C@@H]1CN([C@@H](C)CO)C(=O)c2cccc(NC(=O)C3CCCCC3)c2O[C@@H]1CN(C)Cc1ccc(Cl)c(Cl)c1	-11	-5
CCC(=O)N1CCCCN2[C@H](CO)[C@H](c3ccc(-c4cccc(C#N)c4)cc3)[C@@H]2C1	-2	-17
C[C@H](CO)N1C[C@H](C)[C@@H](CN(C)Cc2ccc(C(=O)Nc3ccccc3N)cc2)Oc2ccc(NS(C)(=O)=O)cc2C1=O	10	5
CCC(=O)N1[C@H](CO)[C@H]2c3ccccc3N(C(=O)NC(C)C)C[C@H]21	11	7
C[C@H](CO)N1C[C@H](C)[C@H](CN(C)C(=O)CCCN(C)C)OCCCC[C@H](C)Oc2ccc(NC(=O)CCC(F)(F)F)cc2C1=O	17	1

A draw from above in order of molecular weight, smallest number first:
SMILES	Vaccinia stage	Vaccinia stage Venus
O=C(NCC[C@H]1CC[C@@H](NC(=O)C2CCCC2)[C@@H](CO)O1)Nc1ccc(Cl)cc1	7	-3
Cc1ccc(-c2ccc([C@@H]3[C@@H](CO)N4C(=O)CN(C(=O)Nc5cccc(F)c5)C[C@@H]34)cc2)cc1	?	.
CCCNC(=O)[C@H]1[C@H](CO)[C@H]2Cn3c(ccc(-c4ccc(F)cc4)c3=O)[C@@H]1N2Cc1ccccc1F	-3	-6

Screening results as filed in PubChem BioAssay.
